# Screening results as filed in PubChem.
# YopH PTP inh: YopH (Yersinia) phosphatase inhibition. fluorescence Ex485/Em525. inhibition, %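 (about 10 µM by stock and volumes)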. hit rate 0.16% among 140,000;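 active = inhibition of 50% or more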;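 also: controls were vehicle for no effect and minimum signal wells for full effect; inactives centre near -20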
# Mtb bLac sens: beta-lactam sensitization of Mtb H37Rv | M. tuberculosis H37Rv growth with meropenem, percent inhibition; hits of this screen are not shown here | hit rate 0.27% among 330,000 | inhibition, % at 25 µM;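 active = about 74% or more and at least 40 points above the plate without the antibiotic, then above 30% in a dose series; inconclusive = first-round hits that could not be retested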;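 also: growth measured after seven days incubation then overnight dye step; 0% = bacteria only wells and 100% = bacteria with antibiotic; twin plates without the antibiotic show which effects depend on it; some results filed as inactive read as strong as hits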
# RecA intein inh: Mtb RecA intein splicing inhibition | P9WHJ3 | cell-free RecA intein splicing, fluorescence | inhibition, %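 (about 9 µM by stock and volumes)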 | hit rate 0.75% among 290,000 | AID 2221; in the data active = inhibition above about 30%; inconclusive = no clear call, values can overlap the other calls;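 also: 0% = vehicle wells and 100% = reference inhibitor control wells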
# Target sequence (P9WHJ3 whole entry, looked up): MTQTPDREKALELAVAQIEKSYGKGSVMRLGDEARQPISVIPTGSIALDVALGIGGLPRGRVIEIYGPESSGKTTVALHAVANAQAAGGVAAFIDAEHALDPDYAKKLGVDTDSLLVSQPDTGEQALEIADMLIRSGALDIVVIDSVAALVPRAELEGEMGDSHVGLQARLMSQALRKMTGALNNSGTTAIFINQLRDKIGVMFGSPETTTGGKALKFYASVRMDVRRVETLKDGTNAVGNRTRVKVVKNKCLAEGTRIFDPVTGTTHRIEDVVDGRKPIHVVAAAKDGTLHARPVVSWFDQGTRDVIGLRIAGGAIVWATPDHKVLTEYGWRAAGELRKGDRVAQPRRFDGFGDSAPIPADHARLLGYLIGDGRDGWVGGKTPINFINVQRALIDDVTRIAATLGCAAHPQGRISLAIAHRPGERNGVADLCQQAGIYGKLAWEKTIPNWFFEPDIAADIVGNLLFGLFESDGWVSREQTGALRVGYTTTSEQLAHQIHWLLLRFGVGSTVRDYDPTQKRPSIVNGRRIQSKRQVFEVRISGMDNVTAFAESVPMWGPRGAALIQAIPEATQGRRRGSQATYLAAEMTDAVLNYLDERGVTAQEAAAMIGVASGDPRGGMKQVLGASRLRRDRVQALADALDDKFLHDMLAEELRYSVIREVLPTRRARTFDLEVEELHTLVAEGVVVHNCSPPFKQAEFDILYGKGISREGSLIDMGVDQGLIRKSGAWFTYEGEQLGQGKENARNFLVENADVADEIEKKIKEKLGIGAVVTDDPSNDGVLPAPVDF
# Mtb H37Rv: M. tuberculosis H37Rv growth inhibitors, H37Rv strain (AID 1626); M. tuberculosis H37Rv growth inhibition; higher % means a stronger effect; inhibition, % at 10 µM; hits with a dose series show IC50 in µM; hit rate 0.95% among 220,000;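 active = confirmed in a dose series; inconclusive = inhibition above 80% but not taken into the dose series; inactive = below 80% or under 30% at every dose of the series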;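 also: bacteria incubated seven days before Alamar blue readout; 0% = bacteria only wells and 100% = bacteria with antibiotic wells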
# Arbovirus inh: arbovirus infection inhibition | inhibition, % at 10 µM | AID 1251 | arbovirus infection cell-based antiviral screen | hit rate 0.37% among 200,000;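 active = inhibition from about 30%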;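 also: bluetongue infection of BSR cells; cell survival read as ATP light after 72 h; 0% = infected wells without compound and 100% = uninfected wells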
# Arbovirus inh repeat: also measured in Arbovirus inh; calls as there; inhibition, %; measured here: 10K subset replicate screen; many hits read low in the repeat;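 first of two repeat runs on a subset; 0% = infected and 100% = uninfected wells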
# * marks the source's active call; other numbers are inactive results; ? = inconclusive; . = no result given. This is a subset; rates above refer to the full screens.
SMILES,YopH PTP inh,Mtb bLac sens,RecA intein inh,Mtb H37Rv,Arbovirus inh,others
Cc1ccc(C(=O)NCCC2=CCCCC2)cc1S(=O)(=O)N1CCOCC1,.,0,-2.9,.,.,
Cc1ccc(NC(=O)C2C3C=CC(O3)C2C(=O)O)c(C)c1 (stereo not drawn),.,-11,1.0,.,.,
NC(=O)N/N=C/c1ccccc1OC(=O)c1ccccc1Br,.,-4,2.2,0%,1,
CCCc1nc(SCC(=O)NC2CCCC2)c2ccccc2n1,.,5,10,.,.,
NS(=O)(=O)c1ccc(N=Nc2c[nH]c(=O)c(O)c2)cc1,.,11,-1.3,-9%,.,
COc1ccc(C(C[N+](=O)[O-])C2(c3ccc(OC)c(OC)c3)C(=O)c3ccccc3C2=O)cc1 (stereo not drawn),-16,80,-5.5,1%,-36,
CCCNC(=O)Cc1c(O)c2ccccc2[nH]c1=O,-2,0,-8.9,-12%,8,
CCCCCC1CCC(C(=O)O)CC1 (stereo not drawn),-58,4,-9.5,-16%,17,
CC(C)c1ccc(Nc2nnc(SCC(=O)c3nnc(-c4ccccc4)o3)s2)cc1,-15,8,.,7%,-8,
O=C(OCc1c(F)cccc1Cl)c1cnc(Cl)c(Cl)c1,.,97,3.4,.,.,
Cc1ccc(N2C(=O)CCC2=O)c(C)c1,.,-9,1.3,.,.,
CN(CCC1CCOCC1)Cc1cn[nH]c1-c1ccc(-c2ccccc2)cc1,.,-8,-2.1,-2%,-34,
Cc1ccc(S(=O)(=O)N(CC(=O)N2CCC(C)CC2)Cc2ccccc2F)cc1,-22,.,0.9,-1%,-12,
COC(=O)c1cc(C#N)c(Oc2ccccc2OC)nc1C,-29,-7,-0.1,21%,0,
CCOc1ccc(NC(=O)COC(=O)CCS(=O)(=O)c2ccc(C)cc2)cc1,.,42,-1.7,35%,-4,
COc1ccc(NC(=O)C(F)(F)F)cc1OC,-9,-17,0.3,9%,3,
O=c1c2c3c(sc2nc(NCCO)n1CCc1ccccc1)CCCCC3,-4,43,8.2,6%,-18,
O=C(/C=C/c1cccc([N+](=O)[O-])c1)OC1CCCCC1=O (stereo not drawn),.,2,.,-6%,13,
Cc1noc(C(=O)NCC2CCCO2)c1Cl (stereo not drawn),.,-1,-2.5,.,.,
COc1ccc(-c2cc(C(F)(F)F)c(C#N)c(SCC(=O)Nc3ccccc3C#N)n2)cc1,-17,37,-21,21%,0,
O=C(c1cc(C2CC2)nc2ccc(Br)cc12)N1N=C(C(F)F)CC1(O)C(F)F (stereo not drawn),-32,-5,0.2,2%,-35,
CNC(=S)/N=C/NOCc1c(Cl)cccc1Cl,.,68,-2.9,?,-23,
CCn1cc(C(=O)N2CCc3ccccc32)c(=O)c2cc(S(=O)(=O)N3CCCC3)ccc21,-18,-3,0.6,-5%,5,
CC1CCN(C(=O)CSc2nnc(-c3cccnc3)n2C2CCCCC2)CC1,-4,-4,0.0,-2%,0,
Cc1ccc(OCCNC(=O)c2ccccc2O)cc1,.,1,-1.2,.,.,
CC(C)(C)c1cc(NC(=O)CSc2nnc(N)s2)n(-c2ccccc2)n1,-28,-5,-2.5,-4%,9,
Cc1cc(N2CCCC(C(=O)Nc3ccc4c(c3)CCC4)C2)n2ncnc2n1 (stereo not drawn),-49,1,-4.2,-4%,7,
CCc1ccccc1NC(=O)c1cc(-c2ccc3c(c2)OCO3)on1,.,1,-3.6,.,.,
CCOC(=O)Cn1c(=N)n(CCOc2ccc(F)cc2)c2ccccc21,.,-7,0.6,2%,.,
COc1ccc(/C=C(\NC(=O)c2ccc(C)cc2)C(=O)NCC2CCCO2)cc1 (stereo not drawn),.,6,-4.6,7%,2,

# Of the compounds above, these have bromine.
SMILES,YopH PTP inh,Mtb bLac sens,RecA intein inh,Mtb H37Rv,Arbovirus inh,others
NC(=O)N/N=C/c1ccccc1OC(=O)c1ccccc1Br,.,-4,2.2,0%,1,
O=C(c1cc(C2CC2)nc2ccc(Br)cc12)N1N=C(C(F)F)CC1(O)C(F)F (stereo not drawn),-32,-5,0.2,2%,-35,

# (more compounds)
SMILES,YopH PTP inh,Mtb bLac sens,RecA intein inh,Mtb H37Rv,Arbovirus inh,others
CC(C)OCCCNC(=O)c1ccccc1NC(=O)C1=CSCCO1,.,-2,-5.0,.,.,
CN1N=C(/C=C/c2ccccc2)CCC1=O,.,-14,-0.2,7%,-4,
COc1cc(OC)cc(C(=O)N[C@H](C(=O)Nc2nc(-c3ccc(F)c(F)c3)cs2)C(C)C)c1,.,2,-1.0,3%,3,
COc1ccc2c(c1)CCC/C2=N/OC(=O)c1ccccc1OC,.,72,4.2,10%,2,
Cc1ccc(OCC(=O)NN=C2c3ccccc3-c3ccccc32)cc1,-35,-2,-5.6,-9%,-9,
Cc1ccc(-n2nc(C)cc2Nc2ncc(Cl)cc2Cl)cc1,-31,5,-2.8,4%,-7,
CCC/C(C)=C/c1ccc(CC)cn1,.,1,0.3,-11%,.,
O=C(CNCc1ccc(F)cc1)Nc1ccc(S(=O)(=O)N2CCOCC2)cc1,.,3,-3.2,.,.,
CN1CCn2c1nc(N1CCOCC1)nc2=O,-20,-10,-0.8,2%,4,
N#C/C(=C/c1ccco1)C(N)=S,.,-8,-2.4,-14%,.,
COc1ccc(/C=C(/NC(=O)/C=C/c2ccccc2)C(=O)N2CCOCC2)cc1,-15,-2,-4.7,-9%,-11,
CCN1CCCC(OC(=O)Nc2ccccc2)C1 (stereo not drawn),-38,-1,1.3,0%,2,
Cn1cc(CN2CCC(Oc3ccc(C(=O)N4CCCC4)cc3)CC2)cn1,.,9,1.5,.,.,
O=C(CCCCCCC(=O)c1ccccc1)c1ccccc1,.,4,-0.5,0%,-2,
Cc1cc(C)cc(NS(=O)(=O)c2ccc3c(c2)C(C)(C)C(=O)N3C)c1,.,?,-1.0,.,.,
CCOc1ccc(/C=C2/Sc3ccc(C(=O)N4CCOCC4)cc3N(C)C2=O)cc1OC,.,4,-1.5,.,.,
Cc1ccc(-n2c(C)cc(/C=N/Nc3ccc([N+](=O)[O-])cn3)c2C)c(C)c1,8,98,-6.6,8%,2,
CCOc1ccc(Nc2nc(N3CCCC3)nc(N3CCN(c4ccc(OC)cc4)CC3)n2)cc1,.,2,0.0,-4%,12,
CC(C)Sc1nc2c(c(=O)n(C)c(=O)n2C)n1C,-22,-3,0.6,-3%,5,
O=C(COc1ccccc1[N+](=O)[O-])N/N=C/c1ccc[nH]1,.,-2,-2.2,-5%,.,
CC1CCCCC12NC(=O)N(CC(=O)NCc1ccc3c(c1)OCO3)C2=O (stereo not drawn),.,-6,0.2,5%,9,
CCOC(=O)N1CCN(S(=O)(=O)c2cccc3cccnc23)CC1,-23,-4,5.6,13%,8,
Cn1c(SCC(=O)c2ccccc2)nnc1-c1ccncc1,.,-11,-0.6,3%,2,
CCOC(=O)C1CCN(C(=O)CCc2c(C)nc3ncnn3c2C)CC1,11,-7,1.2,-3%,0,
Cc1ccc2c(c1)c1ncn(CCC3=CCCCC3)c(=O)c1n2C,-6,0,.,-1%,3,
CCc1nc2sc3c(Cl)ncnc3c2c2c1CCCC2,.,-6,-2.9,-1%,.,
CC(C)NC(=O)NC(=O)CSc1ncccn1,.,3,0.0,-15%,1,
CC(C)N1C(=O)CCC1C(=O)NCc1ccc(F)cc1Cl (stereo not drawn),.,34,-0.3,.,.,
COc1cc(OC)cc(C(=O)NCC(=O)OCC(=O)Nc2ncc(Cl)cc2Cl)c1,.,-5,4.7,-1%,1,
CC(C)C(c1nnnn1Cc1ccco1)N1CCN(c2nc3ccccc3s2)CC1 (stereo not drawn),-17,-10,12,-6%,-2,
CCSc1ccc(-c2ccco2)nn1,.,-7,6.4,-5%,12,
CCc1c(C#N)c(SCc2c(C)noc2C)nc2c1C(=O)CC(C)(C)C2,-36,8,15,10%,3,
COc1ccc(CC(=O)NCCS(=O)(=O)N2CCN(c3ccc(F)cc3)CC2)cc1OC,.,1,0.0,.,.,
COc1ccc(C(=O)NCCS(=O)(=O)N2CCCCCC2)cc1,.,-11,3.4,.,.,
Cc1ccc(S(=O)(=O)NC2=NCCC2)cc1,-11,-19,0.4,.,-9,
Cc1nn(CCCC(=O)Nc2c(F)cc(F)cc2Br)c(C)c1[N+](=O)[O-],.,-5,-4.1,2%,-7,
N#Cc1ccc(COC(=O)CSc2nnc(N)s2)cc1,-37,3,-1.5,0%,-6,
O=C(NC1CCc2ccccc21)c1cc(COc2cncc(Cl)c2)on1 (stereo not drawn),.,44,7.4,.,.,
Cc1ccc(-c2nnn(CC(=O)N(CC(=O)NC3CCCCC3)c3cnc4ccccc4c3)n2)o1,-112,-4,-0.4,-1%,.,
CCn1nc(C)cc1C(=O)N1CCCC(Nc2ccc(F)c(F)c2)C1 (stereo not drawn),.,-2,-0.5,.,.,

# Quoted from the results shown (five entries):
SMILES,YopH PTP inh,Mtb bLac sens,RecA intein inh,Mtb H37Rv,Arbovirus inh,others
CCSc1ccc(-c2ccco2)nn1,.,-7,6.4,-5%,12,
CCc1c(C#N)c(SCc2c(C)noc2C)nc2c1C(=O)CC(C)(C)C2,-36,8,15,10%,3,
COc1ccc(CC(=O)NCCS(=O)(=O)N2CCN(c3ccc(F)cc3)CC2)cc1OC,.,1,0.0,.,.,
COc1ccc(C(=O)NCCS(=O)(=O)N2CCCCCC2)cc1,.,-11,3.4,.,.,
Cc1ccc(S(=O)(=O)NC2=NCCC2)cc1,-11,-19,0.4,.,-9,

# More structures follow.
SMILES,YopH PTP inh,Mtb bLac sens,RecA intein inh,Mtb H37Rv,Arbovirus inh,others
Fc1ccccc1/C=N/NC(=S)Nc1ccc(Cl)cc1Cl,-4,2,13,5%,-14,
COc1cc(N)ccc1NC(=O)c1cc2ccccc2o1,.,-1,-10,.,.,
Cc1cc(N2CCOCC2)nc2ccc(NC(=S)N3CCN(c4ccccc4)CC3)cc12,.,36,-3.0,20%,-16,
Cc1ccc(N2C(=O)Cc3ccccc3C2=O)cc1,.,-1,6.8,.,.,
CN(C)CCNc1nc(S(=O)(=O)c2ccccc2)c(Cl)s1,.,9,0.0,4%,-1,
COc1ccccc1NC(=O)CN1CCN(CC(=O)Nc2ccc3c(c2)OCCO3)CC1,21,98,.,19%,10,
CC1(C)Cc2nc3sc4c(=O)n(CC(=O)NCc5ccco5)cnc4c3cc2CO1,-42,-4,-4.2,-3%,-8,Arbovirus inh repeat=-2
O=c1[nH]c(=O)n(Cc2ccccc2)c(O)c1/C=N/NCCO,.,-3,-7.2,0%,.,
Cc1[nH]c(C)c2c(=O)n(Cc3ccc(Cl)cc3)ncc12,.,-7,0.3,-9%,.,
CC(C)[C@H](NC(N)=O)C(=O)NCCc1ccc(Cl)cc1Cl,.,-10,0.3,13%,-8,
O=C(c1ccco1)c1cn(CC(=O)N2CCCCCC2)c2ccccc12,.,-13,-3.4,1%,3,
Fc1ccc(Cn2nnc(-c3ccc(Cl)cc3)n2)cc1,.,4,0.1,.,.,
O=C(O)C1CC(O)CN1S(=O)(=O)c1cccs1 (stereo not drawn),-50,1,1.1,.,1,
COc1cc2c(cc1OC)C(c1ccccc1)N(C(=O)c1ccccc1F)CC2 (stereo not drawn),.,6,5.1,.,.,
Cc1c(S(=O)(=O)N(C)C2CCCCC2)c(=O)n(C)c(=O)n1C,.,-10,-0.3,.,.,
CCN(c1cccc(C)c1)S(=O)(=O)c1ccc2[nH]c(=O)c(=O)[nH]c2c1,10,-12,-0.1,0%,3,
Cc1ccc(S(=O)(=O)N(C)CC(=O)N2CCOCC2)cc1,-20,-5,0.3,-7%,0,
Nc1nnc(CC(=O)N/N=C/c2cccc([N+](=O)[O-])c2)s1,-13,-5,0.4,.,8,
Cc1cc(C)nc(NCC(O)CNc2ccccc2C)n1 (stereo not drawn),-1,4,-0.2,-6%,1,
CCN(CCn1cccn1)Cc1nc(-c2ccc(OC)cc2)no1,.,-10,0.2,9%,9,
C/C(=N\NC(=O)c1cccc(N/N=C(\C)c2ccc([N+](=O)[O-])cc2)c1)c1ccc([N+](=O)[O-])cc1,.,41,4.8,8%,.,
COc1ccccc1C(=O)NCC(=O)OCC(=O)Nc1ccc2[nH]c(=O)[nH]c2c1,.,-1,-0.4,.,.,
Cc1cc(-n2c(C)cc(C(=O)COc3ccc([N+](=O)[O-])cc3)c2C)no1,.,-3,1.0,-3%,-5,
Cc1cc(C)c(S(=O)(=O)c2ccccc2)c(Cl)n1,-30,-5,-1.8,1%,13,
Nc1nn(-c2ccccc2)c(N)c1N=Nc1cccc(F)c1,.,-7,0.9,-1%,.,
Cc1ccccc1NC(=S)N1CCN(Cc2ccc3c(c2)OCO3)CC1,-28,4,-6.5,-5%,-7,
O=C(COC(=O)Cn1cnc2ccccc21)Nc1ccc2c(c1)OCCO2,-18,1,1.0,2%,0,
Cc1sc(-n2c(C)ccc2C)c(C#N)c1C,-29,22,-0.2,-8%,-1,
CN1C(=O)C(CC(=O)NCC2CCCCC2)SC1=Nc1ccccc1 (stereo not drawn),.,1,-0.9,-5%,2,
